Screening results: PubChem, National Center for Advancing Translational Sciences (NCATS)
AID923 – qHTS Assay for Allosteric/Competitive Inhibitors of Caspase-1: Spectroscopic Profiling in AFC Spectral Region. Potency, µM (doses to about 57.5 µM), inactives show at the top dose fluorescence increase, hits mostly activators. compound fluorescence, AFC spectral region (405/520 nm); almost no hit is shown here. 75,000 compounds, 1.1% hits; active = well fitted activation curve with a large enough effect;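 also: 0% is about no effect; scaled to a free AFC standard on each plate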
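Compound autofluorescence profiled at 405 nm ex/520 nm em during kinetic caspase 1 run (50 nM enzyme, 5 uM Ac-WEHD-AFC, HEPES pH 7.5, 10 mM DTT). Titration up to 57 uM; baseline from regression intercept, normalized to AFC standard curve.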
Starred values were filed as active, the others as inactive; & = joins results of further samples; [ ] = dose if it differs, or a comment. Potency is read from the fitted curve at half-maximal effect. Only part of the results is shown (hit frequency here may not be typical).

No.	SMILES	AID923
1	CC(C)Oc1cccc(-n2c(CCc3c[nH]c4ccc(Br)cc34)nc3ccccc3c2=O)c1	-2.0%
2	CC1(C)SC2C(NC(=O)C(C(=O)O)c3ccccc3)C(=O)N2C1C(=O)O (stereo not drawn)	2.2%
3	NCC1O[C@@H](O[C@@H]2C(O)[C@H](O[C@H]3OC(CO)C(O)C(N)C3O)[C@@H](N)C[C@H]2N)C(N)C(O)C1O (stereo partly drawn)	-0.7%
4	O=C(O)c1cc(C(F)(F)F)nc2ccccc12	-2.8%
5	OCC1O[C@H](OC2C(CO)O[C@@](O)(CO)C2O)C(O)C(O)C1O (stereo partly drawn)	-0.3%
6	CCOC(=O)C(CC)Sc1ncnc2c1nnn2-c1ccc(F)cc1 (stereo not drawn)	8.5%
7	COc1cccc2c(=O)n(CC(=O)N3CCCCCC3)ccc12	-3.0%
8	CC(=O)OC1CCC2(C)C(CCC3(C)C2C(=O)C=C2C4CC(C)(C(=O)OCCN5CCCCC5)CCC4(C)CCC23C)C1(C)C (stereo not drawn)	-2.9%
9	C=C(CO)C1Cc2c(ccc3c2OC2COc4cc(OC)c(OC)cc4C2C3=O)O1 (stereo not drawn)	-1.9%
10	CC(=O)OC1CC(OC(C)=O)[C@]2(C)C(CC(=O)[C@]3(C)C2CC[C@@]2(C)C(c4ccoc4)OC(=O)C4O[C@@]423)C1(C)C (stereo partly drawn)	2.2%

The listing continues.
No.	SMILES	AID923
11	Nc1nc2c(nc(Cl)n2C2OC(CO)C(O)C2O)c(=O)[nH]1 (stereo not drawn)	-0.4%
12	O=C(NC1CCCCCC1)c1cccs1	0.5%
13	CCSc1nnc(N2C(=O)CC(c3ccsc3)C3=C2CC(C)(C)CC3=O)s1 (stereo not drawn)	-0.7%
14	Cc1cc(S(=O)(=O)N2CCN(Cc3ccccc3)CC2)c(C)s1	-2.2%
15	Nc1nc(O)c2ncn([C@H]3CC[C@@H](CO)O3)c2n1	0.1%
16	CCN(CC)S(=O)(=O)c1ccc(Cl)c(C(=O)NC2CCCC2)c1	-0.7%
17	CCc1nn(C(C)C(=O)Nc2cccc(C)c2C)c(=O)c2cc3occc3n12 (stereo not drawn)	-0.7%
18	CCCCc1nc(Cl)c(CO)n1Cc1ccc(-c2ccccc2-c2nn[nH]n2)cc1	-1.0%
19	Cc1ccc(N2Cc3ccccc3OC(C)C2=O)cc1 (stereo not drawn)	-1.7%
20	COc1c(-c2coc3cc4c(cc3c2=O)CC(OC(C)=O)C(C)(C)O4)ccc2c1C=CC(C)(C)O2 (stereo not drawn)	-1.3%

(list continues)
No.	SMILES	AID923
21	CCOC(=O)C1CCCCN1Cc1ccc(F)c(Br)c1 (stereo not drawn)	1.1%
22	CC(=O)OC1CC(O)C(C)(C)C2CC(OC(C)=O)[C@]3(C)C(CC[C@@]4(C)C(c5ccoc5)OC(=O)C5OC534)[C@]12C (stereo partly drawn)	-1.4%
23	CCC/C=C(\CCC)C(NS(=O)(=O)c1ccc(Cl)cc1)c1ccc(C(=O)OC)cc1 (stereo not drawn)	-0.5%
24	C=CC(C1=CC(=O)C(OC)=CC1=O)c1ccc(OC)cc1 (stereo not drawn)	-1.4%
25	CC(C)c1ccc2c(c1)CCC1C(C)(C(N)=O)CCCC21C (stereo not drawn)	-5.2%
26	Cc1ccc(C)c(S(=O)(=O)Nc2ccc(O)cc2)c1	-0.9%
27	O=C(CN1C(=O)CC(c2ccco2)Sc2ccccc21)NCc1ccc2c(c1)OCO2 (stereo not drawn)	-0.8%
28	CCC(C(=O)O)C1CCC(C)C(C(C)C(O)C(C)C(=O)C(CC)C2OC3(C=CC(O)[C@@]4(CC[C@](C)(C5CC[C@@](O)(CC)C(C)O5)O4)O3)C(C)CC2C)O1 (stereo partly drawn)	-1.9%
29	COC(=O)[C@@H]1C[C@H]1[C@@H](NS(=O)(=O)c1ccc(-c2ccccc2)cc1)c1ccccc1	2.3%
30	C[N+](C)(C)CCOP(=O)([O-])OP(=O)(O)OCC1OC(n2ccc(N)nc2=O)C(O)C1O (stereo not drawn)	-2.2%

Additional records:
No.	SMILES	AID923
31	CC(=O)OC1C=C[C@]2(C)C(CC(OC(C)=O)[C@@]3(C)C4=CC(=O)OC(c5ccoc5)[C@]4(C)CCC23)C1(C)C (stereo partly drawn)	0.6%
32	CCC1=C(OC(=O)N(CC)CC)N2C(=O)OC(=NCC3CC3)[C@]2(C)[C@H]2C1=CC[C@H]1C(=O)N(CC)C(=O)[C@H]12	-0.8%
33	COc1ccc(-n2c(-c3ccco3)n[nH]c2=S)cc1	0.5%
34	CCOC(=O)C1=CC(OC(CC)CC)C(NC(C)=O)C(N)C1 (stereo not drawn)	2.1%
35	C=C(C)C1CCC(C)=C1COC(=O)Nc1ccccc1 (stereo not drawn)	-1.9%
36	COC(=O)c1ccc(C(NC(=O)OCc2ccccc2)/C(F)=C/[C@@H](C)C(=O)NCc2cccnc2)cc1 (stereo partly drawn)	1.0%
37	CCC1=C2CC[C@H]3C(=O)N(C)C(=O)[C@H]3[C@H]2[C@@]2(Cc3ccccc3)C(=NCCOC)OC(=O)N2C1=O	1.3%
38	Nc1ccc(C(=O)Oc2ccccc2)c(O)c1	-2.0%
39	C=CCn1c(SCC(=O)NC2CCCCC2)nnc1-c1ccc(OC)cc1	-0.4%
40	CC(C)=CCCC(C)C1CC[C@@]2(C)C3=C(CC[C@@]12C)C1(C)CCC(O)C(C)(C)C1CC3 (stereo partly drawn)	-1.7%

Carrying on.
No.	SMILES	AID923
41	CS(=O)(=O)N(CC(=O)N1CCCC1)c1cccc(Cl)c1	0.7%
42	C/C(=C\c1ccco1)C1C(C#N)=C(N)Oc2n[nH]c(-c3ccccc3)c21 (stereo not drawn)	0.8%
43	Cc1cc(C(=O)N2CCc3ccccc32)n(-c2ccccc2)n1	-1.2%
44	O=C(NCCN1CCOCC1)c1cc2sccc2n1Cc1ccc(F)cc1	-1.8%
45	COc1ccc(C2CC(=O)c3ccc(OC)cc3O2)cc1 (stereo not drawn)	-1.1%
46	Nc1nc(=S)c2[nH]cnc2[nH]1	-1.1%
47	Nc1ncnc2c1[nH]c(=O)n2C1CC(O)C(CO)O1 (stereo not drawn)	0.9%
48	CC(=O)OCC1=C(C(=O)O)N2C(=O)C(NC(=O)Cc3cccs3)C2SC1 (stereo not drawn)	10.8%
49	CCC1OC(=O)C(C)[C@@H](O[C@H]2C[C@@](C)(OC)C(O)C(C)O2)C(C)[C@@H](O[C@@H]2OC(C)CC(N(C)C)C2O)[C@](C)(O)CC(C)/C(=N\OCOCCOC)[C@H](C)C(O)[C@]1(C)O (stereo partly drawn)	-0.8%
50	CCOc1ccc(N(CC(=O)Nc2ccccc2C)S(=O)(=O)c2c(C)noc2C)cc1	0.4%

Brought forward from above: three entries, followed by the next part.
No.	SMILES	AID923
48	CC(=O)OCC1=C(C(=O)O)N2C(=O)C(NC(=O)Cc3cccs3)C2SC1 (stereo not drawn)	10.8%
49	CCC1OC(=O)C(C)[C@@H](O[C@H]2C[C@@](C)(OC)C(O)C(C)O2)C(C)[C@@H](O[C@@H]2OC(C)CC(N(C)C)C2O)[C@](C)(O)CC(C)/C(=N\OCOCCOC)[C@H](C)C(O)[C@]1(C)O (stereo partly drawn)	-0.8%
50	CCOc1ccc(N(CC(=O)Nc2ccccc2C)S(=O)(=O)c2c(C)noc2C)cc1	0.4%
51	O=C(NC1=NCCS1)c1cc2ccccc2o1	-2.0%
52	O=C1[C@@H]2[C@H]3C(=CC[C@@H]2C(=O)N1Cc1ccccc1)C1(OCCCO1)[C@H]1O[C@@H]1[C@H]3O	-1.6%[11.5 µM]
53	Cc1occc1C(=O)NC(C)CCc1ccccc1 (stereo not drawn)	-2.1%
54	CCC1=C2CC[C@H]3C(=O)N(CC(=O)OC)C(=O)[C@H]3[C@H]2[C@@]2(Cc3ccccc3)C(=NCCOC)OC(=O)N2C1=O	-1.8%
55	CC1OC(OC2C(CO)OC(OC3C(CO)OC(O)C(O)C3O)C(O)C2O)C(O)C(O)C1NC1C=C(CO)C(O)C(O)C1O (stereo not drawn)	-2.0%
56	CCOC(=O)c1c(C(C)(C)C)oc2ccc(OCC#N)cc12	-0.3%
57	CC1=CCc2c(cc3oc(C)cc(=O)c3c2O)OC1	8.6%
58	N#C/C(C(=O)c1ccccc1)=C1/CCCN1	0.6%
59	O=C(NC(CO)C(O)c1ccc([N+](=O)[O-])cc1)C(Cl)Cl (stereo not drawn)	-1.0%
60	COc1ccc2c(c1)OCC(Cc1ccc(OC)c(OC)c1)C2=O (stereo not drawn)	-1.1%

Remaining list, next part:
No.	SMILES	AID923
61	NC(=O)c1ccc[n+]([C@@H]2OC(COP(=O)([O-])OP(=O)(O)OCC3OC(n4cnc5c(N)ncnc54)C(O)C3O)C(O)C2O)c1 (stereo partly drawn)	-2.0%
62	CN(C)c1ccc(C(=O)C(O)c2ccc(C(C)(C)C)cc2)cc1 (stereo not drawn)	-0.4%
63	CC(=O)OCC1OC(n2cnc3c(Cl)nc(Cl)nc32)C(OC(C)=O)C1OC(C)=O (stereo not drawn)	-0.2%
64	N=c1ccn2c(n1)OC1C(O)C(CO)OC12 (stereo not drawn)	2.8%&-0.3%
65	CC(C)Cn1c(N)c(C(=O)COC(=O)c2cc(C3CC3)nc3ccccc23)c(=O)n(C)c1=O	0.4%
66	COc1ccc2c(c1)O[C@@H]1c3ccc(OC)cc3OCC21 (stereo partly drawn)	-1.2%
67	Clc1ccc(C2[C@H]3CN(CC4CCCCC4)[C@H](c4ccccc4)C34CC2(c2ccccc2)C4)cn1 (stereo partly drawn)	-0.5%
68	N#Cc1ccc(C23CC4(C2)[C@H](CN(Cc2ccc(C(F)(F)F)cc2)[C@@H]4c2ccccc2)C3c2ccc(Cl)nc2)cc1 (stereo partly drawn)	-0.4%
69	COC(=O)C(N)CS (stereo not drawn)	2.1%
70	CCN1CCCC1Cn1c(-c2ccccc2)nc2c(N3CCOCC3)nc(C)nc21 (stereo not drawn)	-1.0%

Reprinted at random: 6 records from the list.
No.	SMILES	AID923
66	COc1ccc2c(c1)O[C@@H]1c3ccc(OC)cc3OCC21 (stereo partly drawn)	-1.2%
69	COC(=O)C(N)CS (stereo not drawn)	2.1%
61	NC(=O)c1ccc[n+]([C@@H]2OC(COP(=O)([O-])OP(=O)(O)OCC3OC(n4cnc5c(N)ncnc54)C(O)C3O)C(O)C2O)c1 (stereo partly drawn)	-2.0%
63	CC(=O)OCC1OC(n2cnc3c(Cl)nc(Cl)nc32)C(OC(C)=O)C1OC(C)=O (stereo not drawn)	-0.2%
68	N#Cc1ccc(C23CC4(C2)[C@H](CN(Cc2ccc(C(F)(F)F)cc2)[C@@H]4c2ccccc2)C3c2ccc(Cl)nc2)cc1 (stereo partly drawn)	-0.4%
64	N=c1ccn2c(n1)OC1C(O)C(CO)OC12 (stereo not drawn)	2.8%&-0.3%

The listing continues.
No.	SMILES	AID923
71	COC(=O)c1ccc(C(NC(=O)OCc2ccccc2)/C(=C/[C@@H](C)C(=O)NCc2nc3ccccc3n2C)c2cccnc2)cc1 (stereo partly drawn)	-0.5%
72	O=C(c1ccc(F)cc1)c1cc2ccccc2o1	0.8%
73	CCC1=C2CC[C@H]3C(=O)N(CC)C(=O)[C@H]3[C@H]2[C@@]2(Cc3ccccc3)C(=NCC3CC3)OC(=O)N2C1=O	0.2%
74	COC1C=CO[C@@]2(C)Oc3c(C)c(O)c4c(O)c(c(C=NN5CCN(C)CC5)c(O)c4c3C2=O)NC(=O)/C(C)=C\C=CC(C)C(O)[C@@H](C)C(O)C(C)[C@H](OC(C)=O)C1C (stereo partly drawn)	-2.2%
75	CC(C)=CCCC1(C)C=Cc2c(O)c3c(c(CC=C(C)C)c2O1)OC12C(=CCCC1C(C)(C)O[C@@]2(C/C=C(\C)C(=O)O)C(=O)O)C3=O (stereo partly drawn)	-3.2%
76	CCOC(=O)N1CCC(N2C(=O)c3ccccc3C2Nc2ccc(Cl)cn2)CC1 (stereo not drawn)	-0.9%
77	O=C(O)C1(O)C[C@H](O)C(O)[C@@H](O)C1 (stereo partly drawn)	-0.9%
78	N#CN=C1CCCCCN1CC(N)=O	7.6%
79	c1ccc2c(c1)Cc1cc(CN3CCOCC3)ccc1-2	2.6%
80	COC(=O)c1cc(OC)c(=O)c2c(OC)c(OC)ccc2c1	1.3%

(further entries)
No.	SMILES	AID923
81	CC(=O)Nc1c(I)cc(I)c(C(=O)O)c1I	-0.4%
82	Cn1c(N)c(C(=O)COC(=O)c2cc(-c3ccco3)nc3ccccc23)c(=O)n(Cc2ccccc2)c1=O	3.8%
83	CC(C)c1c(O)ccc2c1CCC1[C@@](C)(C=O)CCC[C@@]21C (stereo partly drawn)	-0.8%
84	CCOC(=O)Cc1ccc(NS(=O)(=O)c2ccc(SC)cc2)cc1	-1.3%
85	CN(C)CCOC(c1ccc(Cl)cc1)c1ccccn1 (stereo not drawn)	3.1%
86	COC(=O)[C@@H]1C[C@H]2CC[C@H](O)C[C@H]2N1Cc1ccc(-c2ccccc2)cc1	0.7%
87	COC(=O)c1ccc(C)c(NS(=O)(=O)c2ccc(OC)cc2)c1	-1.8%
88	CC(C)CCCC(C)C1CCC2C3CC=C4CC(O)CCC4(C)C3CCC12C (stereo not drawn)	-0.7%
89	CC(C)(C)N1C(=O)[C@@H]2[C@H]3C(=CC[C@H]2C1=O)C(=O)[C@H]1O[C@H]1[C@H]3O	-2.2%[11.5 µM]
90	CCC1=C(OC(=O)N(CC)CC)N2C(=O)OC(=NCc3ccccc3)[C@]2(C)[C@H]2C1=CC[C@H]1C(=O)N(CC)C(=O)[C@H]12	1.8%

(list continues)
No.	SMILES	AID923
91	CC(=O)Oc1ccc2c(c1C(C)C)CCC1C(C)(C)CCC[C@@]21C (stereo partly drawn)	3.6%
92	CCCCC/C=C\C/C=C\C/C=C\C/C=C\CCCC(=O)O	-3.4%&8.4%
93	COc1ccccc1CNC(=O)c1cnc2ccccn2c1=O	0.7%
94	COC(=O)CCCOc1ccc(Cl)cc1Cl	-1.8%
95	CCOc1cccc(-c2nc3cc(C)ccc3o2)c1	-0.5%
96	CC(C)Cn1c(CN(Cc2ccccc2)Cc2ccccc2)nc2c1c(=O)n(C)c(=O)n2C	12.1%
